HNF4A DNA FP: change in binding of human HNF4 alpha to DNA. P41235. HNF4a-FITC DNA binding, fluorescence polarization, 1 h. activity change, % at 10 µM. 360,000 tested, 0.3% active. AID 1224865; in the data active = activity change above about 30%, passing the limit was not always enough;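 note: controls were the assay level and a saturating level of protein; the project sought stronger binding though the title names inhibitors; some compounds called inactive have numbers as strong as hits; positive values seem to mean higher polarization but the record does not say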
Target sequence (P41235 whole entry, looked up): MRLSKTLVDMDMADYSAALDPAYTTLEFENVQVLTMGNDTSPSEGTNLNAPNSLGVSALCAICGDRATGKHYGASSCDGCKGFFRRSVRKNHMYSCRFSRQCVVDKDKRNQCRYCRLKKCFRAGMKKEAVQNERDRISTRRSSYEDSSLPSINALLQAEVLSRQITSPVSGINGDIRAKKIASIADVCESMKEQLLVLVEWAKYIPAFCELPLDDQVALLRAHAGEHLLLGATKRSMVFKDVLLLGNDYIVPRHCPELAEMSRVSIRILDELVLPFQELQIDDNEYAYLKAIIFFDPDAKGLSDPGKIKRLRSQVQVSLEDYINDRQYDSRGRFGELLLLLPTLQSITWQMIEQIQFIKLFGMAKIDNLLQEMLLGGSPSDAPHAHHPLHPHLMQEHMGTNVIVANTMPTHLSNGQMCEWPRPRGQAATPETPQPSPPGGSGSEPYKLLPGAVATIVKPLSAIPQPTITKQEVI
Numbers without * were called inactive.

SMILES	HNF4A DNA FP
COc1cc2oc(=O)cc(CN3CCN(c4ccccc4F)CC3)c2cc1Cl	9.3
Cc1cc(C)cc(Cn2cc(CN3CC(N4CCN(CCN(C)C)CC4)CS3(=O)=O)nn2)c1 (stereo not given)	-1.1
Cn1cc(-c2coc3c(C(=O)NCc4cccc(Cl)c4)cccc23)cn1	0.7
CCOC(=O)C1=CCN(S(=O)(=O)c2ccc(Br)cc2)C1c1ccc(C)cc1 (stereo not given)	0.1
COc1ccc(Cl)c(-c2cc(C(=O)NC(C)C)[nH]n2)c1	-2.1
COc1ccc(-c2cnc3c(NC=O)cc(-c4ccc(C(=O)N5CCOCC5)cc4)cn23)cc1OC	1.6
O=C(CSc1ncn[nH]1)Nc1nc2c(F)c(F)c(F)cc2s1	-3.1
CC(C)(C(=O)N1CCC1(C)C(=O)NS(=O)(=O)c1ccccc1Cl)c1ccccc1 (stereo not given)	-3.6
CCCNC(=O)N1C[C@H](O)COC[C@H]2O[C@@H](CC(=O)N[C@@H]3CCN(Cc4ccccc4)C3)CC[C@@H]21	4.2
COC(=O)N1CCCCC1c1cc(C(=O)NCc2ccc(Cl)c(Cl)c2)no1 (stereo not given)	0.2
COc1cccc(-c2cc(NC=O)c3ncc(-c4cccc(C(=O)N(C)C)c4)n3c2)c1	13
Cc1ccccc1-c1csc(C(C)(O)c2ccccc2)n1 (stereo not given)	1.4
C/C(=N\NC(=O)C1CCCC1)c1ccc(NC(=O)C(F)(F)F)cc1	-3.3
Cc1ccccc1[C@H](NC1c2ccccc2C=Cc2ccccc21)P(=O)(c1ccccc1)c1ccccc1	2.7
CCOC(=O)[C@]12CCC=C1N(CCC1=CCCCC1)C(=O)[C@H](CC(=O)N1CCCCC1)C2	2.1
O=[N+]([O-])c1ccc(Nc2ccccc2O)c([N+](=O)[O-])c1	12
COC(=O)N(C)C[C@H]1OCc2cnnn2CCCC(=O)N([C@@H](C)CO)C[C@@H]1C	0.5
COCCNC(=O)c1cc2c(c(-c3cccc(-c4cc5ccccc5o4)c3)n1)[C@H](CCO)N(S(=O)C(C)(C)C)C2 (stereo not given in full)	21
CC(C)(C)n1nnnc1C(c1ccccc1)N1CCN(c2c(Cl)cncc2Cl)CC1 (stereo not given)	0.0
Cc1cc2nc(C3CCCCC3)c(CC(C)(C)C)n2c(C)c1Br	4.1
CCOC(=O)C1(C)CCN1C(=O)c1ccc(C#N)cc1 (stereo not given)	-0.3
O=C(NCc1ccncc1)[C@@H]1CCCN1C(=O)[C@@H]1CCCN1C(=O)c1ccccc1Cl	-0.2
Cn1cnc(S(=O)(=O)N2CCCCC2c2cc(C(=O)NCc3ccc(Cl)c(Cl)c3)no2)c1 (stereo not given)	1.3
CCc1nc2ccc(C(=O)NCCCN(C)C)cn2c1N(C)CCCc1ccccc1	6.7
COC(=O)[C@]12CCCCC=C1N(CCc1ccc(OC)c(OC)c1)C(=O)[C@H](CC(=O)N1CCSCC1)C2	-0.2
OCc1ccccc1-c1nc(NCc2ccccc2)nc2ccsc12	-1.5
CSC(=NS(=O)(=O)c1ccccc1)NNC(=O)c1c(-c2c(Cl)cccc2Cl)noc1C	-0.8
COC(=O)[C@]12CCCCC=C1N(Cc1ccccc1)C(=O)[C@H](CC(=O)NCCC(C)C)C2	-1.0
CC1(Cc2cccc(C#N)c2)C(=O)Nc2c(Cl)cccc21 (stereo not given)	-1.1
COc1ccc(S(=O)(=O)N2CCCCC2c2cc(C(=O)NC(C)C)no2)cc1 (stereo not given)	0.9

Some values from the entries so far.
Entry for O=C(NCc1ccncc1)[C@@H]1CCCN1C(=O)[C@@H]1CCCN1C(=O)c1ccccc1Cl in HNF4A DNA FP: -0.2
Entry for CC(C)(C)n1nnnc1C(c1ccccc1)N1CCN(c2c(Cl)cncc2Cl)CC1 (stereo not given) in HNF4A DNA FP: 0.0

Later entries
SMILES	HNF4A DNA FP
Cc1ccc(CN2C(=O)CSCC2(C)C(=O)NC(C)C)cc1 (stereo not given)	0.4
COC(=O)C[C@@H]1C=C[C@H](NC(=O)c2cnccn2)[C@@H](CO)O1	0.7
CC1(c2nnnn2-c2ccc3c(c2)OCCO3)CCC(=O)N1CCCN1CCOCC1 (stereo not given)	1.9
COc1cc(OC)nc(Nc2nc(C(C)N)cs2)n1 (stereo not given)	1.0
Cc1noc(-c2ccccc2)c1NC(=O)Nc1ccc2nc([C@H]3C[C@H](O)[C@@H](CO)O3)[nH]c2c1	2.4
CC(C)c1cc(Cn2c3ccccc3c(=O)n2C(C)C)on1	-1.5
CC(C)Cc1ccc(CN2C(C(C)C)C(=O)N(Cc3cn(CCC4OCCO4)nn3)CCS2(=O)=O)cc1 (stereo not given)	0.9
CC(=O)Nc1cccc(-c2ccnc3c2CC(C)(C(=O)NCCc2ccccc2)O3)c1 (stereo not given)	2.4
COCCNc1nc(NCc2cccc(OC)c2)c2sc(-c3ccccc3)cc2n1	-0.1
COc1ccc(OC)c(CC(=O)Nc2ccc3c(c2)c(=O)n(C)n3Cc2cccc(C(F)(F)F)c2)c1	-0.7
Cc1noc(C)c1C(=O)N1CCCC(C)(C(=O)NS(=O)(=O)C2CC2)C1 (stereo not given)	-1.4
COc1ccccc1-c1noc2c1C(=O)N(Cc1cn(Cc3ccccc3)nn1)CC2	-3.8
Cc1ccc(OCCSc2nc3ccccc3n2CCC(=O)O)c(C(C)C)c1	-2.8
Cc1cn([C@H]2C[C@H](O)[C@@H](CNC(=O)[C@H]3CCC(=O)N3)O2)c(=O)[nH]c1=O	3.8
C=CCNc1ncnc2c1ncn2[C@H]1CN(C2CCCC2)C[C@@H](CO)O1	0.9
COC(=O)Cn1c(C(=O)N2CCCC2)cc2c1C[C@H]1CN(C(=O)c3ccccc3)[C@@](Cc3ccc(OC)cc3)(C(=O)OC)[C@@H]21	2.8
CCCCNC(=O)c1nc(C2CCN(S(=O)(=O)c3ccc(C(F)(F)F)cc3)CC2)oc1-c1ccccc1	2.0
COc1ccc(OCC(=O)N2CCN(S(=O)(=O)c3ccc4c(c3)OCCO4)CC2)cc1	3.0
NC(=NCc1ccccc1)NN=Cc1ccnc2ccccc12	0.4
CC1=C(C(=O)N(C)C)CC(CC(=O)NCc2cccs2)C(=O)N1Cc1ccc(F)cc1 (stereo not given)	4.2
CC1=C(C(=O)N(C)C)CC(CC(=O)NCc2cccs2)C(=O)N1Cc1ccccc1 (stereo not given)	-0.8
CCCNC(=O)C1(C)CCN(Cc2ccc(C(=O)OCC)cc2)C1 (stereo not given)	-1.1
CC(O)(c1ccccc1)c1nc(-c2cccc(C(F)(F)F)c2)cs1 (stereo not given)	0.8
Cc1cc(OCCCN2CCC(C(O)(c3ccccc3)c3ccccc3)CC2)ccc1Br	-2.5
CC(C)(C)NC(=O)C(c1ccc(C#N)cc1)n1c(=O)c(-c2ccco2)nc2ccccc21 (stereo not given)	13
CN(Cc1ccccc1)C(=O)[C@@H]1CCCN1C(=O)[C@@H]1CCCN1C(=O)c1c(F)cccc1F	0.4
COC(=O)C1CCN(C2CN(Cc3ccc(F)cc3)S(=O)(=O)C2)CC1 (stereo not given)	-2.6
O=C(c1cnc(Cc2c[nH]c3ccccc23)c(I)c1)N1CCOCC1	-2.1
CC1(C(=O)NS(=O)(=O)c2ccc3c(c2)CCO3)CCN1C(=O)CCC1CCCC1 (stereo not given)	2.6
CCc1nc2ccc(C(=O)N(C)C(C)C)cn2c1N(CCC(C)C)CCN(C)C	-1.6

Retrieved one by one from the entries so far:
SMILES	HNF4A DNA FP
CC1(C(=O)NS(=O)(=O)c2ccc3c(c2)CCO3)CCN1C(=O)CCC1CCCC1 (stereo not given)	2.6
CC(O)(c1ccccc1)c1nc(-c2cccc(C(F)(F)F)c2)cs1 (stereo not given)	0.8

Later entries:
Compound | HNF4A DNA FP
CC1(C(=O)NS(=O)(=O)c2ccc3ccccc3c2)CCN1C(=O)CC1CCCCC1 (stereo not given) | 0.3
COc1ccc(CN2CCC2(C)C(=O)Nc2cccc(NS(C)(=O)=O)c2)c2ccccc12 (stereo not given) | 0.3
COC(=O)[C@@]1(Cc2ccc(F)cc2)[C@H]2c3cc(C(=O)N4CCCC4)n(CC4CC4)c3C[C@H]2CN1C(=O)c1ccccc1 | 1.1
COc1ccc(-c2cnc3c(NC=O)cc(-c4ccc(S(C)(=O)=O)cc4)cn23)cc1OC | 2.5
COc1ccc(CN(C)C(=O)/C=C/[C@H]2O[C@@H](n3cc(C)c(=O)[nH]c3=O)C[C@@H]2O)cc1OC | 3.7
CC1(C(=O)NS(=O)(=O)c2ccc(F)cc2F)CCN1C(=O)c1cccc(F)c1 (stereo not given) | -0.3
CC(=O)Nc1cccc(-c2cc3nc(NCc4cccnc4)n(C)c(=O)c3s2)c1 | 0.7
CC1(C(=O)Nc2ccccc2Cc2ccccc2)CCN1Cc1ccccc1Cl (stereo not given) | -1.6
COCC(=O)N1CCC(c2nc3ccccc3[nH]2)CC1 | 1.2
CCOC(=O)[C@]12CCCC=C1N(Cc1ccco1)C(=O)[C@H](CC(=O)N1CCN(C(=O)C3CC3)CC1)C2 | 1.0
CC1(C(=O)NS(=O)(=O)c2ccc(C#N)cc2)CCN1C(=O)C1(c2ccccc2)CC1 (stereo not given) | -0.5
COCCNC(=O)C1CCCN(Cc2ccc(-c3ccccc3)cc2)CC1 (stereo not given) | -0.8
CCCCNC(=O)C1(C)CCN1C(=O)c1ccc2ccccc2n1 (stereo not given) | 5.6
NC(CCc1ccccc1)c1csc(NC(=O)Nc2ccccc2Oc2ccccc2)n1 (stereo not given) | 2.0
Nc1[nH]c(C(=O)c2ccccc2)c(-c2ccccc2Br)c1C(=O)NCc1ccc(-c2ccccc2)cc1 | 3.1
CC1(C(=O)NS(=O)(=O)c2ccc(F)cc2F)CCN1C(=O)C/C=C/c1ccccc1 (stereo not given) | -2.1
O=C(Nc1ccc2ccccc2c1)C(C1CC1)n1c(=O)c(-c2cc3ccccc3[nH]2)nc2ccccc21 (stereo not given) | 1.6
CCOC(=O)C1CCCN(C(=O)c2oc3ccccc3c2C)CC1 (stereo not given) | -1.0
CC(=O)Nc1cccc(-c2csc(C(C)(NC(C)=O)c3ccccc3)n2)c1 (stereo not given) | 3.8
CC1(c2nnnn2C2CCCCC2)CCC(=O)N1Cc1ccc2c(c1)OCO2 (stereo not given) | -4.4
COc1ccccc1Cc1c(-c2ccc(C)cc2)nc2c(C)cc(Br)cn12 | 13
C[C@@H]1CC2=C(C(=O)OC(C)(C)O2)[C@@H](C2CC2)O1 | 2.5
O=C(NC1CCCC1)c1nc(-c2c(F)cccc2F)oc1-c1ccccc1 | 0.1
O=S(=O)(Nc1ccc(O)c2ncccc12)c1ccccc1F | -15
O=C(NC1CCCC1)C(C1CC1)n1c(C2CCCC2)nc2ccccc21 (stereo not given) | 0.6

Three entries out of the list above, ordered by the value under HNF4A DNA FP, ascending:
Compound | HNF4A DNA FP
CC1(c2nnnn2C2CCCCC2)CCC(=O)N1Cc1ccc2c(c1)OCO2 (stereo not given) | -4.4
COC(=O)[C@@]1(Cc2ccc(F)cc2)[C@H]2c3cc(C(=O)N4CCCC4)n(CC4CC4)c3C[C@H]2CN1C(=O)c1ccccc1 | 1.1
Nc1[nH]c(C(=O)c2ccccc2)c(-c2ccccc2Br)c1C(=O)NCc1ccc(-c2ccccc2)cc1 | 3.1

The list goes on.
Compound | HNF4A DNA FP
CN1C=Nc2c(ncn2C2CCC(CO)O2)C1O (stereo not given) | -1.6
Cc1ccc(S(=O)(=O)N2[C@H](c3cccc(Cl)c3)CC(=O)[C@@H]3CN(S(=O)(=O)c4ccccc4C)[C@H](c4ccc(Cl)cc4)C[C@@H]32)cc1 | -0.6
Cn1nc(C2CC2)cc1NC(=O)C1(C)CCN1C(=O)Cc1ccc(-c2ccccc2)cc1 (stereo not given) | 2.1
CCc1nc2ccc(C(=O)NCCC(C)C)cn2c1N(C)Cc1nccs1 | 2.2
COc1cccc(C(O)c2nc(-c3cc(F)cc(F)c3)cs2)c1 (stereo not given) | 1.6
O=C(C[C@@H]1CC[C@H](NC(=O)Nc2ccc(F)cc2)[C@@H](CO)O1)NCc1cccc(F)c1 | 1.8
COC(=O)[C@]12CCCCC=C1N(CCc1ccc(OC)c(OC)c1)C(=O)[C@H](CC(=O)N1CCOCC1)C2 | -1.9
COc1ccc(Cl)cc1Cn1c(C)c(C(=O)N(C)Cc2ccc(F)cc2)sc1=O | 2.1
Fc1cccc(Cc2c(-c3ccccc3)nc3ccc(Br)cn23)c1 | -11
CC(C)CCNC(=O)[C@@H](Cc1ccccc1)NC(=O)CC[C@H]1O[C@@H](n2ccc(=O)[nH]c2=O)[C@H](O)[C@@H]1O | -1.7
CCNC(=O)C1CCCN(C(=O)c2ccc(-c3ccccc3)cc2)CC1 (stereo not given) | 3.9
CCCCNC(=O)C[C@@H]1C[C@@]2(C(=O)OCC)CCCC=C2N(Cc2ccco2)C1=O | -2.4
CCCCN(C)c1c(C)nc2ccc(C(=O)N(C)CCN(C)C)cn12 | -0.1
COc1ccc(S(=O)(=O)NC(=O)C2(C)CCN2C(=O)Cc2ccc(C(C)(C)C)cc2)cc1 (stereo not given) | 0.1
O=C(NCc1cccs1)c1cccc2c(-c3ccc(F)c(F)c3)coc12 | 1.4
CN(C)c1ccc(-c2csc(C(O)c3ccc(F)cc3)n2)cc1 (stereo not given) | -2.0
CCCCOc1ccc(S(=O)(=O)NC(=O)C2(C)CCN2C(=O)c2cccc(F)c2)cc1 (stereo not given) | -1.4
O=C(COc1ccccc1CNC[C@H]1O[C@@H](n2ccc(=O)[nH]c2=O)[C@H](O)[C@@H]1O)N1CCCCC1 | -3.4
C[C@H](CO)N1C[C@H](C)[C@@H](CN(C)C(=O)NC2CCCCC2)OCc2cnnn2CCCC1=O | 0.3
CCc1nc2ccc(C(=O)Nc3ccc4c(c3)OCC(=O)N4)cn2c1N(C)Cc1nccn1C | 0.3
CC1(C(=O)NS(=O)(=O)c2ccc(F)cc2F)CCN1C(=O)CC(c1ccccc1)c1ccccc1 (stereo not given) | -0.9

Some of the entries so far, as labelled records.
COCC(=O)N1CCC(c2nc3ccccc3[nH]2)CC1
  HNF4A DNA FP: 1.2

CCOC(=O)[C@]12CCCC=C1N(Cc1ccco1)C(=O)[C@H](CC(=O)N1CCN(C(=O)C3CC3)CC1)C2
  HNF4A DNA FP: 1.0

CC1(C(=O)NS(=O)(=O)c2ccc(C#N)cc2)CCN1C(=O)C1(c2ccccc2)CC1 (stereo not given)
  HNF4A DNA FP: -0.5

COCCNC(=O)C1CCCN(Cc2ccc(-c3ccccc3)cc2)CC1 (stereo not given)
  HNF4A DNA FP: -0.8

These rows are one share of the data, so the mix of outcomes need not match the whole.
